HIV Env fusion: HIV envelope-mediated fusion inhibition; HeLa-JRFL Env/CEM21 cell fusion, luciferase; inhibition, % at 12.3 µM; hit rate 1.1% among 360,000; AID 651610;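 active = mean replicate inhibition score of at least 50 and every replicate individually at or above 50; inconclusive = only one of the two criteria met; inactive = mean below 50 and not all replicates reaching 50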;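 note: 0% = plate neutral controls and 100% = maraviroc near 300 nM; one replicate is shown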
UUG fidelity: yeast start codon fidelity modulation; hit rate 0.13% among 350,000; activity score, % at 18.7 µM; S. cerevisiae UUG-firefly luciferase reporter, luminescence/redox ratio; AID 602363;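 active = replicate mean at a twofold rise or more, about +100% in these data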;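 note: firefly luciferase made from a UUG start codon reports start codon fidelity; reporter light over untreated wells divided by growth signal over untreated wells; some hits fall short of that in this replicate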
PABP FP inh: PABP-poly(A) binding inhibition | hit rate 1% among 290,000 | PABP-poly(A) RNA binding, fluorescence polarization | inhibition, % at 35 µM;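 active = 50% or more with normal probe brightness, or confirmed in later tests; inconclusive = above 50% with abnormal brightness, or retests that disagree; inactive = below 50% or failed in later tests; about a fifth of its hits are not listed in these tables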;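 note: calls also rest on retests at 20 µM and on dose response follow-up; controls were probe without protein and protein plus probe with vehicle; some compounds called inactive have numbers as strong as hits; many hits fall short of the cut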
Target sequence (P11940 whole entry, looked up): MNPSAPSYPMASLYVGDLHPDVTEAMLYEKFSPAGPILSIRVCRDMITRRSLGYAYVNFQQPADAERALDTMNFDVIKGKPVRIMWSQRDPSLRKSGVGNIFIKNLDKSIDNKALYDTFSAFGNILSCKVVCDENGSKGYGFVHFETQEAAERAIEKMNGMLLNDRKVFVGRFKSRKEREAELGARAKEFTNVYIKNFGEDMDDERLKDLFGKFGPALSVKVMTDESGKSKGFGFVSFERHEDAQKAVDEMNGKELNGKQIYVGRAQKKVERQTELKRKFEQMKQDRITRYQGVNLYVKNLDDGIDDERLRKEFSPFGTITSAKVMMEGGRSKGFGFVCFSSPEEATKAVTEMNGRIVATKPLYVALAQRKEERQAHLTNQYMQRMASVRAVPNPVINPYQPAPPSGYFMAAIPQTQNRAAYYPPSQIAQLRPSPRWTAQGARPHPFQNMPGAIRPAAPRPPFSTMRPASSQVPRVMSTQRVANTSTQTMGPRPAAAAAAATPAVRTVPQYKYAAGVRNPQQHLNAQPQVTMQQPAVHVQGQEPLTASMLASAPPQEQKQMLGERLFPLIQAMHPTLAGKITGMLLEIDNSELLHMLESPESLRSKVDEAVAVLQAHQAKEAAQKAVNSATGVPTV
CSC inhib: blocks cancer stem cells. cancer stem cell-like cells viability, luminescence. inhibition, % at 7.5 µM. hit rate 1.1% among 300,000. AID 2717;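 active = mean at 75% or more and at least half the replicates too; inconclusive = mean and replicates disagree; tested in HMLE shEcad cells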;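 note: 0% = median of negative and 100% = median of positive control wells; the first replicate is given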
eIF4H FP inh: inhibitors of RNA binding by human eIF4H. Q15056. eIF4H fluorescence polarization binding assay. inhibition, % at 35 µM. hit rate 0.94% among 290,000. AID 2012;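 active = 50% or more with normal probe brightness, or confirmed in later tests; inconclusive = above 50% with abnormal brightness, or retests that disagree; inactive = below 50% or failed in later tests; about a fifth of its hits are not listed in these tables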;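 note: calls also rest on retests at 20 µM and on dose response follow-up; 0% = protein and probe with vehicle and 100% = probe without protein; strong numbers were not always called active; many hits fall short of the cut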
MT1-MMP act inh: blocks activation of human MT1-MMP; P50281; HT1080 RFP-PRO-GFP cells, GFP/RFP ratio fluorescence, overnight; percent of plate control window, DMSO zero; GFP/RFP ratio change, % at 20 µM; hit rate 0.061% among 360,000;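 active = GFP/RFP ratio change of at least 30% with cell ATP level not reduced by more than half and red fluorescence within 50% of control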; note: strong numbers were not always called active
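Assay system: HT1080 cells carrying an RFP-PRO-GFP reporter | Dosing: Single dose of 20 µM compound, 1% DMSO final | Incubation: Cells overnight before dosing, compound overnight, 37 °C, 5% CO2 | Evaluation: GFP/RFP fluorescence ratio | Control set: DMSO and RFP-L50D-GFP cell wells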
Rce1 inh: yeast Ras-converting enzyme inhibition | Q03530 | AID 2563 | hit rate 0.27% among 290,000 | yeast membranes, quenched prenylated peptide cleavage fluorescence | calls only;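 active = fall in fluorescence gain of 50% or more versus controls, with final raw signal at or below 3038400; inconclusive = same 50% fall but final raw signal above 3038400; inactive = fall in fluorescence gain under 50%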;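 note: plate controls were neutral control wells for no effect and wells lacking membranes for full effect; tested at 10 µM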
eIF4H FP inh retest: second read-out of eIF4H FP inh, no call of its own (marks repeat the call); inhibition, %; compound at 20 µM; confirmation average;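 mean of two retest wells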
PABP FP inh retest: also measured in PABP FP inh; calls as there; inhibition, %; compound at 20 µM; confirmation repeats;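 mean of two retest wells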
MT1-MMP act inh RFP: second read-out of MT1-MMP act inh, no call of its own (marks repeat the call); RFP signal change, %; measured here: RFP expression control read;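 0 = vehicle wells; hits needed this value within 50% of zero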
* marks the source's active call; other numbers are inactive results; i = inactive; u = inconclusive; x = not tested or not shown; & = joins results of further samples.

SMILES	HIV Env fusion	UUG fidelity	PABP FP inh	CSC inhib	eIF4H FP inh	MT1-MMP act inh	MT1-MMP act inh RFP	Rce1 inh	others
O=S(=O)(NCCSc1ccccn1)c1ccc(Br)cc1	7.7	6.8	1.5	2.2	-4.1	-4.7	2.4	i
Cc1ccc(S(=O)(=O)CCc2nnc(NC(=O)c3cccs3)s2)cc1	-10.2	x	-4.9	x	-8.2	-0.1	2.4	i
Cc1cc(NC(=O)CSCC(=O)Nc2nc3c(C)cccc3s2)no1	5.0	-11.8	x	-16.6	x	0.3	-3.0	i
O=C(CN1CCN(c2ccccc2O)CC1)Nc1ccc2c(c1)OCCCO2	-1.9	-3.7	x	x	x	0.9	-0.5	x
COC(=O)c1ccc(/C=C2/SC(=S)N(CCC(=O)NCCCN3CCOCC3)C2=O)cc1	-13.0	2.8	0.6	x	-8.2	-0.8	-0.2	i
COCC(=O)Nc1cc(=O)n(C)c(=O)n1C	-13.1	-11.3	16.6	3.0	5.3	2.3	9.2	i
CNS(=O)(=O)c1c(C)cc(C)c(N(C)S(=O)(=O)c2ccccc2)c1C	-1.1	x	-3.3	-3.6	-3.5	-6.0	-0.8	i
Cc1ccc(C(=O)NCc2ccco2)cc1S(=O)(=O)N1CCCCC1	x	-7.1	16.0	x	25.8	2.8	0.6	i
COc1cccc(NC(=O)N2CCCC2)c1	-0.1	-14.3	-1.1	-4.9	2.5	-2.8	5.4	x
CCN(CC(=O)Nc1c(F)cccc1F)C(=O)/C=C/c1ccc(C)o1	-9.0	-8.2	x	-6.6	x	5.7	2.6	i
CCOc1nc(NC(=O)NS(=O)(=O)c2ccccc2F)nc(-c2ccccc2)n1	-19.6	x	u	x	-4.0	-2.7	-0.7	x
CCOC(=O)c1c(NC(=O)CSc2nnc(C)o2)sc(C)c1C	18.1	x	2.7	-4.1	-5.7	3.5	-0.1	i
O=C(NCCc1ccco1)C(=O)NCCC1CCCCN1S(=O)(=O)c1ccccc1 (stereo not drawn)	-1.8	-16.7	x	-16.9	x	18.2	-0.7	i
CCOC(=O)CN1C(=O)S/C(=C\c2ccc(-c3ccc(C(=O)O)c(Cl)c3)o2)C1=O	-2.0	-15.3	26.2*	-20.9	52.1*	-1.0	-8.7	i	eIF4H FP inh retest=102.0*;PABP FP inh retest=86.2*
CCO[C@H]1OC(C(=O)N2CCN(C)CC2)=C[C@@H](c2csc3ccccc23)[C@@H]1CCCO	10.4	-7.9	-1.3	11.9	-10.3	2.0	4.5	i
CC1(C)OC(=O)C2=C(C[C@@H](CCC(F)(F)F)O[C@H]2c2ccc(F)cc2)O1	-3.9	-10.4	x	x	x	-2.3	-1.1	x
Cc1ccc(S(=O)(=O)NN=C2CCN(Cc3ccccc3)CC2)cc1	-17.5	-24.1	5.0	-6.5	-3.7	0.2	2.4	i
CCOCC(=O)Nc1cccc(OC)c1	x	-15.5	2.2	-10.9	-7.8	4.9	-0.8	i
CCN(CC)c1ccc2oc(=O)c(C)nc2c1	x	-16.7	115.5*	26.7	121.5	-32.1	18.9	i	eIF4H FP inh retest=45.3;PABP FP inh retest=62.7*
N#Cc1ccccc1NC(=O)C1SC(=Nc2ccccc2)C(C(=O)Nc2ccc(Cl)cc2)=C1N (stereo not drawn)	u	-9.3	2.1	28.9	-4.1	-17.3	-2.3	i
COc1ccc(CC(=O)OCC(=O)NC2CCCC(C)C2C)cc1OC (stereo not drawn)	-6.2	-13.7	x	-23.2	x	-1.4	2.1	x
COc1ccc(CNC(=O)C2(CC(=O)NC(C)(C)C)CCCC2)cc1	30.2	-12.6	5.3	-2.9	5.4	1.3	4.2	i
CC(=O)c1ccc(OCCCC(=O)Nc2cccc(S(=O)(=O)N(C)C)c2)cc1	-5.0	x	-12.6	6.9	-2.0	2.2	-5.8	i
CNS(=O)(=O)c1ccc(NC(=O)c2ccc(Cl)cc2Cl)cc1	9.4	x	-4.5	-4.9	-4.3	1.9	-4.1	i
COc1ccccc1/C=N/Nc1cc(N(C)C)nc(N(C)C)n1	14.4	x	-9.3	8.9	16.1	-0.4	5.4	i

(continued)
SMILES	HIV Env fusion	UUG fidelity	PABP FP inh	CSC inhib	eIF4H FP inh	MT1-MMP act inh	MT1-MMP act inh RFP	Rce1 inh	others
c1ccc(-n2cnc3cc(NCc4cccs4)ccc32)cc1	i	-41.4	-4.1	-13.5	-6.3	8.4	5.0	i
Cc1ccc(S(=O)(=O)N2CCCN(c3nc4cc(C)ccc4cc3C#N)CC2)cc1	34.3	-15.3	-6.5	-7.8	-0.9	-64.5	0.0	i
O=[N+]([O-])c1cccc(C2CC(c3ccccc3)=NN2c2ccccc2)c1 (stereo not drawn)	4.8	-21.6	5.1	16.6	-12.2	2.5	-6.9	i
O=C(NC1CCCc2ccccc21)c1ccc(Br)cc1 (stereo not drawn)	-3.7	-35.2	1.2	-5.3	1.5	-3.5	-0.5	i
NC(=O)CNC1CC(=O)N(CCc2ccccc2)C1=O (stereo not drawn)	-10.2	-5.3	3.9	10.3	3.5	5.0	2.9	i
Cc1cnc(NS(=O)(=O)c2ccccc2)c(Br)c1	1.4	x	9.0	-8.0	-1.3	-3.3	-1.4	x
CCN(CC(=O)Nc1ccc2c(c1)OCCO2)CC(=O)Nc1ccc2c(c1)OCO2	-9.0	x	-5.7	6.8	-3.3	-2.5	-2.4	i
CNC(=O)CSc1ncnc2c1cnn2-c1ccccc1	-4.2	x	1.6	-2.5	4.5	-5.2	-2.0	i
COc1ccc(C(=O)CC(=O)C(=O)Nc2ccc(C)cc2Cl)cc1	-4.3	-15.9	0.1	6.9	9.8	1.2	1.8	i
COc1ccc(S(=O)(=O)NCC(=O)N(CC(=O)NCC2CCCO2)Cc2ccccc2)cc1 (stereo not drawn)	-9.9	-14.7	4.0	-14.5	-6.6	-2.0	1.6	i
O=C(CSc1cccc[n+]1[O-])Nc1ccc2c(c1)OCCO2	5.7	x	1.0	-11.4	14.0	1.2	1.1	i
CC1CCCCN1C/C=C/c1ccccc1[N+](=O)[O-] (stereo not drawn)	-4.3	x	-2.6	0.3	-0.6	2.4	5.2	i
COc1cccc(Nc2nnc(SCC(=O)N3CCOCC3)s2)c1	x	-0.8	2.9	x	-1.0	1.9	-1.9	i
CC(=O)c1c(C)[nH]c(C(=O)COC(=O)Cc2ccccc2F)c1C	-43.7	-15.2	x	-4.4	x	-0.9	0.1	x
CC(=O)c1ccc(NC(=O)CSc2ccc(-c3ccco3)nn2)cc1	10.8	2.4	8.9	-3.4	32.0	1.0	-0.4	i
CCOC(=O)C1=C(C)NC2=C(C(=O)C(C(=O)OCC)C(c3ccc(OC)cc3)C2)C1c1ccccn1 (stereo not drawn)	x	-15.7	-4.4	-4.8	0.4	1.9	0.4	i
Cc1ccnc(N2CCCC(C(=O)Nc3ccc(C)c(C)c3)C2)n1 (stereo not drawn)	11.7	-21.4	3.9	x	-2.6	-1.7	-3.7	i
CC1=CC(=C(C#N)C#N)c2ccccc2N1C	-11.2	-15.3	-4.9	6.3	u	-7.0	-3.5	i
Cc1nc2nc(SCC(=O)NCCCN3CCCCCC3)nn2c(C)c1Cc1ccccc1Cl	10.4	12.6	x	-5.1	x	-4.6	3.0	i
O=C(C[C@H]1C/C=C\C[C@@H](Cc2ccc(F)cc2)C(=O)OC[C@H]2CCCN2C1=O)N[C@H](CO)Cc1ccccc1	-47.4	17.0	x	-4.4	x	5.2	4.3	x
CC12CCC(c3c(C(=O)O)nn(-c4ccccc4)c31)C2(C)C (stereo not drawn)	x	x	-0.4	0.0	3.7	6.0	3.7	i
CCc1nc2ccc(C(=O)N(C)Cc3ccccc3)cn2c1N(CC)Cc1cccc(Br)c1	13.6	-7.9	x	x	x	-4.8	-5.2	x
Nc1ncnc2c1ncn2[C@@H]1O[C@H](C(=O)N[C@H]2c3ccccc3C[C@H]2OC=O)[C@@H](O)[C@H]1O	8.3	-14.4	x	x	x	-1.2	1.9	x
CCn1c(SCC(=O)Nc2cc(NC(C)=O)ccc2OC)nnc1-c1ccncc1	x	x	5.0	x	2.4	x	x	i
Cc1onc(-c2ccccc2)c1C(=O)NC1CC1	-9.8	-13.6	x	x	x	-4.0	0.9	x

Next part
SMILES	HIV Env fusion	UUG fidelity	PABP FP inh	CSC inhib	eIF4H FP inh	MT1-MMP act inh	MT1-MMP act inh RFP	Rce1 inh	others
Cc1ccccc1S(=O)(=O)N(C)C[C@H]1OCc2cnnn2CCCC(=O)N([C@@H](C)CO)C[C@H]1C	-78.5	1.6&-2.4&-9.9	x	x	x	0.8	1.4	x
COc1cc(/C=N/NC(N)=S)ccc1OCC(=O)N1CCOCC1	x	-18.0	-3.4	12.6	-7.0	2.4	7.8	i
COC(=O)[C@@]12CCCN1[C@H](c1ccc(SC3CCCCC3)cc1)[C@H]1C(=O)N(C)C(=O)[C@H]12	42.6	-11.8	x	-7.0	x	9.6	-4.5	x
COc1ccc(CN2CCN(CCSc3ccc(C)cc3)CC2)c(OC)c1OC	13.6	-1.9	-1.8	36.2	-5.9	1.2	-7.5	i
CN(CCc1ccccn1)C(=O)CCC1CCCN(C(=O)c2c3c(nn2C)CCCC3)C1 (stereo not drawn)	7.5	x	-5.1	4.6	-1.2	0.9	-3.0	i
O=c1c2ccccc2ncn1-c1ccc(Cl)cc1Cl	-3.5	-4.7	6.3	-11.0	-11.9	-3.2	-3.4	i
CN(C)CC1CCCCC1C1(O)c2ccccc2CSc2sccc21 (stereo not drawn)	-85.1	-8.3	-3.3	11.7	-6.0	-8.0	-4.5	x
Cc1ccc(S(=O)(=O)/N=C/c2cc(Br)ccc2O)cc1	1.7	x	-2.6	-4.2	3.8	1.4	5.6	i
CCN(CC)S(=O)(=O)c1cccc(C(=O)NNC(=O)c2ccc3[nH]c(=O)c(=O)[nH]c3c2)c1	4.1	8.8	5.3	-2.6	-3.3	0.5	-2.8	i
CCN1CCN(S(=O)(=O)c2ccc(Cl)c(C(=O)N(C)Cc3ccccc3)c2)CC1	12.3	-12.6	x	-13.0	x	-1.0	-3.3	x
CCN(CC)CCCNC(=O)CNC(=O)c1nn(-c2ccc(OC)cc2OC)c(=O)c2ccccc12	-2.5	-8.4	x	x	x	-3.4	2.3	x
C[C@H]1CCC[C@]2(O[C@H](CCO)C[C@H](O)[C@H]2O)O1	18.1	-15.4	x	x	x	-2.9	2.3	i
COc1ccc(OCC(=O)Nc2c3c(nn2C(C)(C)C)CSC3)cc1	17.6	x	7.5	1.6	3.4	-7.5	-8.0	i
COc1ccc2sc(NCc3ccccc3)nc2c1	-113.6	-4.8	-6.0	20.1	-9.6	-2.4	-1.9	i
CCn1c(=N)n(CC(O)c2ccccc2)c2ccccc21 (stereo not drawn)	x	3.0	-5.3	13.3	-4.7	-2.1	2.0	i
Cc1ccccc1CNCCCSc1ncccn1	-3.6	-10.9	7.3	-2.2	7.0	-7.9	-0.2	i
Cn1ccnc1SCC(=O)Nc1cccc([N+](=O)[O-])c1	-2.6	-17.7	-4.7	-1.6	-5.3	6.1	1.8	i
COc1ccc(N2C(=O)CC(NC3CCCCNC3=O)C2=O)cc1 (stereo not drawn)	x	-32.9	-0.2	-9.8	-13.8	1.0	1.6	i
Cc1cccc(C)c1NC(=O)CN(C)CC(=O)Nc1ccccc1Br	-24.2	-11.7	-2.8	-10.9	-7.2	4.2	2.9	i

Source: PubChem

Some of the compounds tested; the hit share may differ from the screen's.
